Source: PubChem
PKD1 kinase inh – inhibitors of human PKD1 kinase | Q15139 | PKD1 kinase fluorescence polarization assay | inhibition, %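 (about 10 µM by stock and volumes)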 | 200,000 compounds, 0.056% hits;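 active = inhibition of 50% or more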;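 note: controls were vehicle for no effect and a reference inhibitor for full effect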
Insulin prom inh – TRM-6 insulin promoter activity inhibition | inhibition, % at 2 µM | TRM-6 cells (human fetal islet line), insulin promoter-eGFP reporter, imaging; reporter expression induced with tamoxifen | 130,000 compounds, 0.9% hits;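 active = inhibition above the mean plus 3 SD, with well images judged a real hit on visual review, cut at about 60% in these data, passing the limit was not always enough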
GALR2 agonist – activates the human galanin receptor 2. GALR2-expressing cells, agonist activation read-out. 140,000 compounds, 0.48% hits. O43603. activation, %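 (tested at 5 µM)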;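 active = above mean plus 3 SD of all compounds, about 5% in these data, not always enough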;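 note: 0% = vehicle buffer wells and 100% = reference agonist at full effect; tested in CHO reporter cells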
Target sequence (O43603 whole entry, looked up): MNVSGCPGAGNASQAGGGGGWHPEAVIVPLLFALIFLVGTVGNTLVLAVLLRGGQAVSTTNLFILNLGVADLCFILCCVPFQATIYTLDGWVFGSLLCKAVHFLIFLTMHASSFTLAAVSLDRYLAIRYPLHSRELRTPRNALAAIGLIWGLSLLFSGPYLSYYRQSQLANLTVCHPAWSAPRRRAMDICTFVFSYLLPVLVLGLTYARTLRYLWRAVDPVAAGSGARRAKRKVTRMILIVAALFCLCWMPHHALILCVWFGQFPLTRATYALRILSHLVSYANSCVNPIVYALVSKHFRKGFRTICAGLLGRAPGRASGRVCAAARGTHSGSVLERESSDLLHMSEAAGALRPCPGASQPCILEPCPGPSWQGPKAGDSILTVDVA
RGS16-Gao HTS – RGS16-Galphao interaction regulator (human); O15492+P09471; bead-based flow cytometry RGS16-Galphao binding, fluorescence; actives lie on both sides; binding response (% of control), % at 10 µM; 220,000 compounds, 0.38% hits; AID 1441;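 active = below 25% or above 175%, edge rows of some plates excepted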;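 note: Galphao activated by GDP with aluminum fluoride before binding; 100% = wells without compound and 0% = beads without RGS; some results beyond the cut were filed as inactive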
Target sequence (O15492 whole entry, looked up): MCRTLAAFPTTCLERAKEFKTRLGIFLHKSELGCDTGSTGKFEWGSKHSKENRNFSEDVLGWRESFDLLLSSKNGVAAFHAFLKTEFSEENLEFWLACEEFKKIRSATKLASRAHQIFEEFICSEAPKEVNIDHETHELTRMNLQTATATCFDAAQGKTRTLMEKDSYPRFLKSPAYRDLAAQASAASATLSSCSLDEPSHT
Target sequence (P09471 whole entry, looked up): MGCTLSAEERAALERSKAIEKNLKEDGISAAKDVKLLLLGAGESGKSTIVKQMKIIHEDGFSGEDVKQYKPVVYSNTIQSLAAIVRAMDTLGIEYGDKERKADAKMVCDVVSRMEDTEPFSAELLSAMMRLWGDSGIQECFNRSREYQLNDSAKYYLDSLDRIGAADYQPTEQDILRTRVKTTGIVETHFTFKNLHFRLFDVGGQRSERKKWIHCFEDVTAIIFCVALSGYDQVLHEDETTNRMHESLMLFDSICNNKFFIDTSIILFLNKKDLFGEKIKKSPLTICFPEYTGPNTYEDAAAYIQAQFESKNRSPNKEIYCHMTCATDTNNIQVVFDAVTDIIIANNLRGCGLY
HSV replic up – increases HSV replication in cells; AID 1956; HSV replication augmentation in cells, fold increase; 220,000 compounds, 0.005% hits; maximum fold increase;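 active = peak rise of 1.5-fold or more in the series; tested in PC3 cells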;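 note: first round at 10 µM; read as green reporter fluorescence; hits show the peak of a series up to 25 µM; 1 = signal of infected wells without compound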
Insulin prom inh cell count – second read-out of Insulin prom inh, no call of its own (marks repeat the call); normalized cell count, %; measured here: cell count, toxicity; reference of the scale not given here;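 cells exposed to compound for 48 h; stained nuclei by imaging scaled within each plate; lower means fewer cells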
HSV replic up primary fold – recorded beside HSV replic up, whose call it bears; fold increase; compound at 10 µM; measured here: primary screen fold increase 10 uM; tested in PC3 cells;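 GFP signal in the first replicate; 1 = infected wells without compound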
The depositor's hits bear a star; i = inactive; nt = no result given.

SMILES	PKD1 kinase inh	Insulin prom inh	Insulin prom inh cell count	GALR2 agonist	RGS16-Gao HTS	HSV replic up	HSV replic up primary fold
CCC1=[N+]([O-])C(C)(/C(C)=N\O)N(O)C1(C)C (stereo not given)	2	23	185	-1.5	94	i	0.8
CC(C)(C)C(=O)c1cnc(Nc2ccccc2Cl)s1	4	-54	30	-2.1	107	i	0.98
COc1ccc2ccc3c(c2c1)N=C[C@]1(O3)N(C)c2ccccc2C1(C)C	19	13	77	0.0	93	i	1.1
Cc1ccc(S(=O)(=O)NC(=O)c2ccc(-c3ccc(C)c4ccccc34)o2)cc1	-2	19	121	-1.2	100	i	1
COc1ccc(-c2nc3ccccc3c(=O)n2CCOc2ccccc2C)cc1	-3	nt	nt	0.1	108	i	1
COc1ccc(/C=C/C(=O)Nc2cc(C(F)(F)F)ccc2Cl)cc1	14	nt	nt	-3.0	97	i	1.1
Cc1cc(NC(=O)CSc2nc(CC(C)(C)C)nc3c2c(=O)n(C)c(=O)n3C)no1	9	nt	nt	-1.3	109	i	0.87
CCOC(CCn1c(SCc2cccc([N+](=O)[O-])c2)nc2ccccc2c1=O)OCC	-7	-92	110	-0.7	113	i	1
CCNC(=O)NC(=O)COC(=O)CCCSc1nc2ccccc2[nH]1	-16	7	85	-1.2	95	nt	nt
NC(=O)C1CCN(C(=S)c2ccc(-c3ccc(Br)cc3)o2)CC1	-5	-38	89	nt	99	i	1.1
CCN(CC)CCNC(=O)CS(=O)Cc1nc(-c2ccc(Cl)cc2)oc1C (stereo not given)	-8	-43	211	-2.5	98	i	0.93
CC(C)NC(=O)c1onc(CSc2ccccc2F)c1C(=O)O	-3	3	242	-2.6	105	i	0.91
O=C1OC(/C(=C\Nc2ccccc2)[N+](=O)[O-])c2ccccc21 (stereo not given)	nt	nt	nt	nt	100	i	0.85
COCCNC(=O)c1nc2c(nnn2Cc2cc(C)ccc2C)c(=O)[nH]1	-10	17	109	-2.1	92	i	0.94
O=C(NN1CC(=O)N(c2cc(Cl)cc(Cl)c2)CC1=O)c1cccs1	nt	nt	nt	nt	98	i	0.96
COc1cc(CC(=O)O)c(C(C)=O)cc1OC	2	-9	118	-1.8	98	i	0.83
O=C(NNC(=O)C1CCC(C(=O)NNC(=O)c2cccs2)CC1)c1cccs1 (stereo not given)	-5	nt	nt	nt	104	i	0.95
COc1cc(CC(=O)Nc2ccc3nc(C)sc3c2)cc(OC)c1OC	1	-18	43	0.7	112	i	1.3
COc1ccc2c(c1)c1ccccc1n2C	8	-52	109	-0.5	104	i	0.87
Nc1nnc(SCc2cccnc2)s1	1	17	152	-4.0	80	i	0.74
COc1ccc(C2=NN(Cc3c(F)cccc3Cl)C(=O)CC2)cc1	1	nt	nt	nt	101	i	0.94
O=[N+]([O-])c1cccc(/C=C/c2ccccn2)c1	nt	nt	nt	nt	107	i	1.2
Cc1cc(=O)c(C(=O)O)cn1Nc1ccc(Cl)cc1	-7	11	102	-2.1	103	i	0.99
COc1cccc(-c2[nH]nc3c2C(c2ccsc2)C(C#N)=C(N)O3)c1 (stereo not given)	-6	39	104	-0.1	100	i	0.96
COC(=O)C1=C(O)/C(=C\c2ccc(CNC(=O)C(=O)Nc3ccc(C)cc3)o2)N=C1C	1	-57	30	-2.0	96	i	1.3
(cont.)
SMILES	PKD1 kinase inh	Insulin prom inh	Insulin prom inh cell count	GALR2 agonist	RGS16-Gao HTS	HSV replic up	HSV replic up primary fold
CCCCC1=CC2=CC(=O)C(C)(OC(=O)CC)C(=O)C2=CN1c1ccc(OC)cc1 (stereo not given)	nt	nt	nt	nt	102	i	0.76
COC1OC(CO)C(O)C(O)C1O (stereo not given)	6	nt	nt	nt	107	i	1
O=C(Oc1ccc(Cl)c2ccccc12)N1CCCCC1	-9	-147	101	0.3	101	i	1.1
CCc1nnc(NC(=O)CSc2nc(-c3ccccc3)cc(-c3ccc(F)cc3)c2C#N)s1	-6	nt	nt	-1.2	126	i	1.1
CCOC(=O)c1[nH]c2ccc(Br)cc2c1NC(=O)CCN1CCCC(C)C1 (stereo not given)	-10	0	106	-2.0	106	i	0.91
Cc1ccccc1NC(=O)c1ccc(Cl)c(NC(=O)c2ccncc2)c1	-3	25	105	-1.5	105	i	0.88
CC(C)CN1CCN(Cc2cccc3nccnc23)CC1CCO (stereo not given)	-1	nt	nt	nt	97	i	1
CN(C)S(=O)(=O)c1cccc(NC(=O)/C=C/c2ccccc2[N+](=O)[O-])c1	-8	-33	71	nt	103	i	0.97
CCCc1cc(=O)[nH]c(SCC(=O)N(CC(C)C)C2CCS(=O)(=O)C2)n1 (stereo not given)	-4	nt	nt	-2.5	98	i	0.78
Cc1cccc(N2CCN(C(=O)Cc3ccc(Br)cc3)CC2)c1C	-9	-8	126	-0.4	89	i	1.1
CC(=O)Nc1sc2c(c1C#N)CC(C)(C)NC2(C)C	-3	0	105	-0.7	117	i	0.7
C/C(=N/NC(=O)C(=O)N/N=C(/C)c1ccccc1)c1ccccc1	-10	-62	105	nt	95	i	0.96
CCc1ccc2[nH]c(=O)c(CN(CCN3CCOCC3)C(=O)Nc3ccccc3F)cc2c1	1	-4	144	-0.3	105	i	0.92
CCN(CC(=O)NC(C)C)C(=O)C(CCSC)NC(=O)c1cccc(C)c1 (stereo not given)	-2	-19	124	-3.3	105	i	1.1
CCCC(=O)C1=C(O)C(C(=O)OC)C(C)(C)CC1=Nc1cccc2ccccc12 (stereo not given)	10	-106	78	-2.5	103	i	1
O=c1[nH]c2cc3c(cc2cc1CN(CCc1ccccc1)Cc1nnnn1CC1CCCO1)OCO3 (stereo not given)	-1	30	83	1.2	102	i	0.84
CCC(=O)NC(Cc1ccccc1)c1ccc2c(c1)OCCCO2 (stereo not given)	-12	nt	nt	-0.3	100	i	1.1
CCn1c(=O)c(-[n+]2ccccc2)c(O)c2ccccc21	18	nt	nt	-0.3	101	i	1
CCc1nc(Nc2ccncc2)c2oc3ccccc3c2n1	18	3	94	-0.7	94	i	0.9
O=C(NCCCNCc1ccccc1)c1ccncc1	-2	12	73	-0.7	104	i	1
COCCN(C(=O)Nc1ccccc1)c1ccccc1C	1	-18	157	0.8	104	i	0.84
COc1ccccc1NC(=S)NCc1ccc(S(N)(=O)=O)cc1	-3	50	109	-0.6	101	i	0.99
Cc1cc(C)cc(NC(=O)CSc2nnc(CN3CCOCC3)n2C)c1	-2	-36	112	1.9	91	i	0.85
Cn1cccc1Cc1nnc(SCC(=O)N2CCCCCC2)n1-c1ccc(F)cc1	6	nt	nt	-3.1	111	i	0.84
O=S(=O)(NC1CCCCC1Nc1ccccc1)c1ccccc1 (stereo not given)	2	3	128	-1.2	103	i	1

An excerpt of these results, as comma-separated lines:
mol,PKD1 kinase inh,Insulin prom inh,Insulin prom inh cell count,GALR2 agonist,RGS16-Gao HTS,HSV replic up,HSV replic up primary fold
CCC1=[N+]([O-])C(C)(/C(C)=N\O)N(O)C1(C)C (stereo not given),2,23,185,-1.5,94,i,0.8
CC(C)(C)C(=O)c1cnc(Nc2ccccc2Cl)s1,4,-54,30,-2.1,107,i,0.98
COc1ccc2ccc3c(c2c1)N=C[C@]1(O3)N(C)c2ccccc2C1(C)C,19,13,77,0.0,93,i,1.1
Cc1ccc(S(=O)(=O)NC(=O)c2ccc(-c3ccc(C)c4ccccc34)o2)cc1,-2,19,121,-1.2,100,i,1
COc1ccc(-c2nc3ccccc3c(=O)n2CCOc2ccccc2C)cc1,-3,nt,nt,0.1,108,i,1
COc1ccc(/C=C/C(=O)Nc2cc(C(F)(F)F)ccc2Cl)cc1,14,nt,nt,-3.0,97,i,1.1
Cc1cc(NC(=O)CSc2nc(CC(C)(C)C)nc3c2c(=O)n(C)c(=O)n3C)no1,9,nt,nt,-1.3,109,i,0.87
CCOC(CCn1c(SCc2cccc([N+](=O)[O-])c2)nc2ccccc2c1=O)OCC,-7,-92,110,-0.7,113,i,1
CCNC(=O)NC(=O)COC(=O)CCCSc1nc2ccccc2[nH]1,-16,7,85,-1.2,95,nt,nt
NC(=O)C1CCN(C(=S)c2ccc(-c3ccc(Br)cc3)o2)CC1,-5,-38,89,nt,99,i,1.1
CCN(CC)CCNC(=O)CS(=O)Cc1nc(-c2ccc(Cl)cc2)oc1C (stereo not given),-8,-43,211,-2.5,98,i,0.93
CC(C)NC(=O)c1onc(CSc2ccccc2F)c1C(=O)O,-3,3,242,-2.6,105,i,0.91
O=C1OC(/C(=C\Nc2ccccc2)[N+](=O)[O-])c2ccccc21 (stereo not given),nt,nt,nt,nt,100,i,0.85
COCCNC(=O)c1nc2c(nnn2Cc2cc(C)ccc2C)c(=O)[nH]1,-10,17,109,-2.1,92,i,0.94

Going on with the list.
SMILES	PKD1 kinase inh	Insulin prom inh	Insulin prom inh cell count	GALR2 agonist	RGS16-Gao HTS	HSV replic up	HSV replic up primary fold
Cc1cccc(N(C)c2cc(C)nc3nc(C)nn23)c1	-20	nt	nt	-0.8	95	i	1.3
Cc1ccc(S(=O)(=O)/N=C(\N)Nc2nc(C)c3ccccc3n2)cc1	-9	-27	146	0.0	113	i	0.92
CCCCc1nnc(NC(=O)CSc2nc(=O)cc(N)n2-c2cccc(C)c2)s1	-5	3	118	-1.2	112	i	0.97
O=C(O)c1ccc(OC(F)(F)C(F)C(F)(F)F)cc1 (stereo not given)	-1	nt	nt	-0.2	100	i	1
COc1ccc(N2CCN(C(c3cc4cc(C)ccc4[nH]c3=O)c3nnnn3Cc3ccccc3)CC2)cc1 (stereo not given)	-1	-6	118	-1.3	nt	i	0.92
Cc1cc2cc(CN(C(=O)C3CC3)C3CCCC3)c3nnnn3c2cc1C	7	-7	83	-0.6	102	i	0.78
O=C(NCc1ccccn1)[C@@H]1C[C@H]1[C@@H](NP(=O)(c1ccccc1)c1ccccc1)c1ccccc1	-3	9	118	-1.0	98	i	0.72
c1ccc(-c2cc3c(N4CCN(c5ncccn5)CC4)ncnc3s2)cc1	-5	nt	nt	nt	94	i	0.88
CCCn1nc(C(=O)Nc2nc3ccccc3[nH]2)c2ccccc2c1=O	-6	68	72	0.5	68	i	0.89
N#Cc1c2c(c(N3CCN(c4ccccn4)CC3)n3c1nc1ccccc13)CCC2	3	-471	60	0.5	nt	nt	nt
O=[N+]([O-])c1ccc(Sc2nnnn2-c2ccccc2)c(Cl)c1	1	55	77	-1.3	73	i	0.73
CC(=O)OCN(C#N)c1nc(N(C)C)nc(N(C)C)n1	9	nt	nt	-2.1	148	i	0.94
O=S(=O)(N/N=C/c1ccc2c(c1)OCCO2)c1ccc(Cl)cc1	3	-17	142	-1.7	104	i	1
Cc1ccc(-n2nnc(-c3cccnc3Cl)n2)cc1	-5	nt	nt	nt	100	i	0.99
Cc1ccc(NS(=O)(=O)c2ccc(NS(=O)(=O)c3cccs3)cc2)cc1	5	-12	171	-1.2	101	i	0.81
CCCS(=O)(=O)N1CCN(C(=O)COc2ccc(-c3ccccc3)cc2)CC1	-8	-2	138	-0.7	103	i	0.81
O=C(CSc1nc2ccccc2[nH]1)Nc1ccc(F)c(F)c1	2	8	99	0.1	nt	i	1.1
Cc1ccc(Oc2ncccc2C(=O)NCC(=O)O)cc1	nt	nt	nt	nt	100	i	1.2
CC(C)CN(C(=O)COC(=O)c1ccc(-c2ccccc2)cc1)C1CCS(=O)(=O)C1 (stereo not given)	-2	22	141	nt	100	i	0.91
CC1(C)c2ssc(=S)c2-c2ccccc2N1C(=O)c1ccco1	8	27	123	-1.1	104	i	0.78
O=C(Cc1ccccc1)Nc1ccc(NC(=O)c2ccco2)nc1	-14	35	132	-0.9	102	i	1.1
O=C(CN1C(=O)NC2NC(=O)NC21)NN=C1CCCC1 (stereo not given)	-1	-50	102	-0.6	101	i	1
Cc1ccccc1OCC(=O)Nc1ccccc1CO	-10	nt	nt	-0.5	105	i	1
COc1cc(C(C#N)N2CCCCC2)ccc1O (stereo not given)	0	nt	nt	-0.2	100	i	0.85
CCOc1ccc2nc(NS(=O)(=O)Cc3ccccc3)sc2c1	0	-33	112	-3.4	102	i	0.6
Cc1c(C(=O)O)oc2c3c(ccc12)OCCO3	-15	nt	nt	-1.6	91	nt	nt
Cc1cc(C)cc(NC(=O)Cn2c(=O)oc3cc(S(=O)(=O)N4CC(C)CC(C)C4)ccc32)c1 (stereo not given)	-17	nt	nt	-0.8	101	i	0.89
CC(C)c1ccc(NNC(=O)C2CCC2)cc1	nt	nt	nt	nt	100	i	1.1
O=C(COC(=O)c1ccc(Cl)cc1O)NCCN1C(=O)CSC1=O	nt	nt	nt	nt	102	i	1.1
O=[N+]([O-])c1ccc2nc(CCCO)[nH]c2c1	2	nt	nt	nt	107	i	0.97
